# Assay outcomes (PubChem BioAssay)
# Hsc70 ATP site: Hsc70 inhibitors, probe displacement, primary screen, biochemical, fluorescence polarization (AID 568); displacement, % at 20 µM; hits with a dose series show IC50 in µM; 83,000 tested, under 10 active; Hsc70 fluorescence polarization, probe displacement; higher % means a stronger effect; strong numbers were not always called active;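 active means displacement above 50% without optical interference and an IC50 on retest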;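 further: ATPase domain with a fluorescein-tagged ATP probe; 0% = vehicle and 100% = excess ADP; read after one hour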
# MT1-MMP reporter: inhibitors of MT1-MMP promoter transcription, cell-based, luciferase reporter, luminescence (AID 618) | MT1-MMP promoter luciferase reporter cells, luminescence | calls from a first round at 10 µM; hits with a dose series show EC50 in µM | 0.62% of 87,000 active;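 active means over half of the reporter light lost at 10 µM or EC50 under 50 µM; inactive means the rest and hits that failed the dose series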;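 further: actives suppress MT1-MMP promoter-driven transcription so potencies describe inhibitors; HT1080 fibrosarcoma cells; overnight exposure; toxic or luciferase-blocking compounds were not removed from the actives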
# WNV protease inh: inhibitors of West Nile virus NS2B-NS3 protease; z-score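 (tested at a level between 10 and 100 µM)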; P06935; AID 577; 0.18% of 65,000 active; WNV NS2B-NS3 protease, fluorogenic substrate Ex360/Em465; stronger effect = lower value;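 active means z-score at -3 or under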;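 further: score is relative to mean and spread of the compound wells of a plate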
# Target sequence (P06935 1371-1501 limits assumed): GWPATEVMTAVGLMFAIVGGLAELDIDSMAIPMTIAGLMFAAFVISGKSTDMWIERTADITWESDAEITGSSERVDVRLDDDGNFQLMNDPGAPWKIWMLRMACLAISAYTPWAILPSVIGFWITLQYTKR
# Target sequence (P06935 1502-1679 limits assumed): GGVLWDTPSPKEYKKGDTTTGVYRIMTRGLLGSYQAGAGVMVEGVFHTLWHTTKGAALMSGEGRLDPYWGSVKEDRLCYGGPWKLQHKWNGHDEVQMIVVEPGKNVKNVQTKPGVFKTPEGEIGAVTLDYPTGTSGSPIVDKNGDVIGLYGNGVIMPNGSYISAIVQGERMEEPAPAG
# * = called active by the depositor; i = inactive; · = no result given. An excerpt. The share of hits here may be higher or lower than overall.
# The line under a structure holds: Hsc70 ATP site	WNV protease inh	MT1-MMP reporter
- CCCn1c(-c2ccc(OC)cc2)nc2c(=O)n(C)c(=O)[nH]c21
  -2.2%	·	i
- CCN(CC)C(=O)CSc1nc2ccccc2c(=O)n1CCC(=O)NCc1ccc(F)cc1
  1.4%	-0.44	i
- COCCn1c(Cc2ccccc2)nnc1SCC(=O)NC(C)C
  -2.0%	-0.67	i
- O=S(=O)(c1cccc(S(=O)(=O)N2CCCC2)c1)c1cccc(S(=O)(=O)N2CCCC2)c1
  0.5%	-0.36	i
- O=C(CN1C(=O)COc2ccccc21)N1CCc2ccccc2C1
  -2.3%	·	i
- O=C(CCCn1c(=O)[nH]c2cc(Cl)ccc2c1=O)NCC1CCCO1 (stereo not given)
  0.1%	0.16	i
- CCOC(=O)c1ccc(NC(=O)Nc2ccc(F)cc2)cc1
  2.5%	·	i
- Cc1cc(C)c2c(=O)[nH]c(SCC(=O)Nc3ccccc3)nc2n1
  -6.1%	1.2	i
- CCOC(=O)c1cnn2c(N)c(C#N)nnc12
  3.0%	-0.77	i
- Cc1ccc(NC(=O)c2cc(S(=O)(=O)N3CCOCC3)ccc2F)c(C)c1
  -4.6%	1.3	i
- CCOC(=O)c1[nH]c(=O)c2ccccc2c1O
  6.9%	-0.84	i
- Cc1cc(N2CCN(c3ccccc3F)CC2)nc2cc(O)ccc12
  -2.3%	1.4	i
- COC(=O)c1sccc1-n1cccc1C(=O)C(=O)N1CC(C)OC(C)C1 (stereo not given)
  -0.3%	·	i
- CC(C)(C)n1nnnc1C(c1ccc(Cl)cc1)N(Cc1cccnc1)Cc1ccco1 (stereo not given)
  -0.4%	·	i
- CCOC(=O)COc1ccc(CCNC(C)=O)cc1
  2.1%	-0.84	i
- Cc1cc(C)n(CC(O)Cn2cnc3c2c(=O)n(C)c(=O)n3C)n1 (stereo not given)
  4.4%	·	i
- CCN(CC)CCN1C(=O)C(=O)/C(=C(/O)c2ccc(F)cc2)C1c1cccnc1 (stereo not given)
  -3.2%	1.4	i
- Cc1nnc(SCC(=O)Nc2ccc(S(=O)(=O)N3CCCCC3)cc2)s1
  -3.1%	·	i
- CC(NC(=O)c1cccnc1)C(=O)N1CCCCC1 (stereo not given)
  2.4%	-0.38	i
- CCn1c(O)c(C=Nc2ccccc2)n(-c2ccccc2)c1=S
  28%	·	i
- Fc1ccc(-n2cnnn2)c(F)c1
  2.4%	0.44	i
- CS(=O)(=O)N(Cc1ccc(C(=O)NC2CCCCC2O)cc1)c1ccccc1 (stereo not given)
  4.1%	-0.87	i
- CCCCn1c(NC(=O)c2ccc(F)cc2)c(C#N)c2nc3ccccc3nc21
  84%	-0.8	i
- CCOc1ccc(-n2nnnc2SCC(=O)N2CCOCC2)cc1
  -3.7%	·	i
- CCN(CC)C(=O)N1CCC(NC(=O)Cc2ccccc2)CC1
  10%	-0.01	i
- Cc1ccc(CCNC(=O)CCNS(=O)(=O)c2ccc3c(c2)oc(=O)n3C)cc1
  -0.3%	-0.35	i
- O=C(Cc1c(O)c2ccccc2[nH]c1=O)NCc1cccc(F)c1
  -1.0%	-0.35	i
- CCOCCOCCC(C(=O)O)P(=O)(c1ccccc1)c1ccccc1 (stereo not given)
  -1.2%	·	i
- CCOc1ccccc1OCC(=O)OCC(=O)Nc1ncc(Cl)cc1Cl
  6.2%	0.51	i
- Cc1[nH]nc2ncc(C(=O)c3cc(F)ccc3O)cc12
  -3.3%	·	i
- CCCN(CCC)C(=O)CC(c1ccccc1)c1ccc(C)cc1O (stereo not given)
  45%	·	i
- Cn1c(C(=O)NCCCN2CCCC2=O)cc2c(=O)n3ccccc3nc21
  -3.8%	4.4	i
- C/C(Cn1cnc([N+](=O)[O-])n1)=N\NC(=O)c1ccccc1
  4.9%	·	i
- COc1ccc(-n2cnnc2SCC(=O)Nc2cc(C(C)(C)C)nn2-c2ccccc2)cc1
  1.1%	·	i
- CN1C[N+]([O-])=C(c2ccccc2)C1(C)C
  0.7%	2.3	i
- O=C(Cc1c(F)cccc1Cl)N1CCCC1
  3.0%	-1	i
- CC1CCCCN1C(=O)C12CCC(C)(/C(=N/O)C1)C2(C)C (stereo not given)
  -8.2%	-0.12	i
- COCC(=O)NCc1nc2ccccc2[nH]1
  -9.5%	-0.51	i
- CCCOC(=O)Nc1cccc(C(C)=O)c1
  0.4%	·	i
- COC(=O)CSc1nnc(-c2ccc(S(=O)(=O)NCc3ccccc3Cl)cc2)o1
  4.6%	·	i
- CCOC(=O)N1CCC(NC(=O)c2cc(C(=O)Nc3ccc(OCC)cc3)ccc2CO)CC1
  -0.5%	0.83	i
- CCOC(=O)c1cnn(-c2nc(-c3ccccc3)nc3c2COC(C)(C)C3)c1N
  3.3%	-0.26	i
- CC(=O)OCCN(CCOC(C)=O)c1c(C)[nH]c(=O)[nH]c1=O
  -2.7%	-0.45	i
- COc1cccc(-c2[nH]nc3c2C(c2ccoc2)C(C#N)=C(N)O3)c1 (stereo not given)
  -0.4%	·	i
- CN1c2ccccc2C(C)(C)C12CCCC(=O)N2 (stereo not given)
  0.2%	0.88	i

# Rewritten with bars between the fields: four of the compounds above.
molecule | Hsc70 ATP site | WNV protease inh | MT1-MMP reporter
CN1C[N+]([O-])=C(c2ccccc2)C1(C)C | 0.7% | 2.3 | i
CCCN(CCC)C(=O)CC(c1ccccc1)c1ccc(C)cc1O (stereo not given) | 45% | · | i
CCOC(=O)N1CCC(NC(=O)c2cc(C(=O)Nc3ccc(OCC)cc3)ccc2CO)CC1 | -0.5% | 0.83 | i
CCCOC(=O)Nc1cccc(C(C)=O)c1 | 0.4% | · | i

# Going on with the list.
# The line under a structure holds: Hsc70 ATP site	WNV protease inh	MT1-MMP reporter
- CCCOc1ccc2c(C)c(CC(=O)OC)c(=O)oc2c1
  7.4%	0.03	i
- O=C(CCCc1nc(-c2ccccc2)no1)N1CCOCC1
  -6.2%	1.1	i
- O=C1COc2ccc(C(=O)c3ccccc3C(=O)NCc3ccccc3)cc2N1
  -2.2%	·	i
- O=C(CSc1nc(-c2ccc(F)cc2)cc(C(F)(F)F)n1)NCCN1CCOCC1
  -2.3%	2.6	i
- O=C(Nc1ccc(Cl)cn1)Nc1cccs1
  -0.1%	-0.39	i
- CCN1N=C(c2cc(Cl)sc2Cl)CSC1=O
  -6.4%	·	i
- CC(C)(C)C(=O)COC(=O)c1ccc(O)cc1
  4.2%	-0.21	i
- O=C(NC1CCCCC1)C1CCN(C(=O)NCc2ccccc2)CC1
  -6.2%	-1.1	i
- c1ccc(Cn2nnc3c(N4CCC5(CC4)OCCO5)ncnc32)cc1
  4.3%	-0.42	i
- Cc1nn(CC(=O)Nc2cccnc2N2CCOCC2)c(=O)c2ccccc12
  17%	-0.08	i
- CCCCOC(=O)Nc1ccc(C(N)=O)cc1
  -2.1%	·	i
- CCn1c(SC(C)C)nnc1-c1cc(-c2ccccc2)sc1N
  -2.7%	·	i
- CCCC(C)C(=O)N(Cc1ccccc1)c1ccccn1 (stereo not given)
  -0.2%	·	i
- COc1ccc(-c2nnc(SCCC(=O)O)n2C)cc1OC
  -5.8%	-0.12	i
- O=C(Nc1ccc2c(c1)N(Cc1ccccc1)C(=O)c1ccccc1S2)NC1CC1
  1.7%	·	i
- O=C(CN1CCC(C(=O)c2ccc3c(c2)OCCO3)CC1)NC1CCCC1
  -2.5%	1.3	i
- CNC(=O)OC(C)CNS(=O)(=O)c1ccc(C)cc1 (stereo not given)
  0.7%	-1.2	i
- COc1ccc(OC)c(C(=O)COC(=O)c2ccccc2O)c1
  -2.8%	-0.38	i
- O=C(CSc1nc2ccccc2o1)NC(=O)NCc1ccco1
  -2.1%	0.56	i
- CC1CCN(CCNC(=O)c2ccc(NC(=O)C3CCCO3)cc2)CC1 (stereo not given)
  5.9%	-0.06	i
- CCCCn1nnnc1NCc1ccc(OC)c(OC)c1
  2.0%	-0.39	i
- O=C(O)CCc1ccc(-c2cccs2)o1
  -0.7%	0.1	i
- C=CCN(CC=C)C(=O)CN1C(=O)c2ccccc2C1=O
  8.2%	0.32	i
- c1ccc(CSc2nnnn2-c2cccc3ccccc23)nc1
  -7.6%	2.5	i
- Cc1cccc(C)c1NC(=O)CSc1nnc(NC(=O)CN2CCOCC2)s1
  2.6%	·	i
- COc1cccc(N2C(=O)C(c3ccccc3)=C(c3nc4ccccc4s3)C2NC(C)=O)c1 (stereo not given)
  0.5%	·	i
- CCCNC(=S)N1CCC(NC(=O)C23CC4CC(CC(C4)C2)C3)CC1
  0.5%	·	i
- COc1ccc(-c2nc(NC(=O)C3CCN(c4nc5ccccc5o4)CC3)sc2C)cc1
  5.3%	-1.1	i
- CCOC(=O)COc1ccc2c3c(c(=O)oc2c1C)CCC3
  5.9%	0.65	i
- O=C(O)c1cn(-c2ccccc2)c(=O)c2ccccc12
  3.6%	·	i
- O=C(Nc1nccs1)c1ccc(Cl)c(S(=O)(=O)N2CCOCC2)c1
  -3.3%	-2.7	i
- CC1(C)Cc2c(sc3nc(-c4cc5ccccc5o4)n(N)c(=O)c23)CO1
  4.8%	-0.05	i
- CN(C)c1ccc(NC(=O)Cn2c(=O)n(Cc3ccccc3)c(=O)c3ccccc32)cc1
  -9.5%	-1.9	i
- Cn1c(COc2ccccc2)nnc1SCCSc1nnc(COc2ccccc2)n1C
  5.2%	-0.6	i
- O=C1CN(C(=O)c2ccco2)C(c2ccccc2)c2cc(Cl)ccc2N1 (stereo not given)
  1.3%	0.18	i
- COC(=O)c1ccc(NC(=O)COc2ccc(S(=O)(=O)N3CCCCC3)cc2)cc1
  -4.3%	·	i
- CCOC(=O)N1CCC(N2Cc3cccc(C(=O)NCc4ccccc4OC)c3C2=O)CC1
  -3.2%	0.33	i
- COCCn1c(-c2cc(OC)c(OC)c(OC)c2)nc2nc3ccccc3nc21
  -1.0%	-1.2	i
- CC(C)OC(=O)CSc1nnc2n1C(C)(C)Cc1ccccc1-2
  -5.2%	0.3	i
- Cc1[nH]n2c(=O)cc(Cc3ccccc3)nc2c1C#N
  3.1%	-0.35	i
- COc1cccc(CN=CC2=C(O)CC(C)(C)CC2=O)c1OC
  -2.5%	0.91	i
- CCn1c(Cc2ccccc2)nnc1SCC(=O)Nc1ccc(N2CCOCC2)c(Cl)c1
  -2.0%	-0.42	i
- O=C(Nc1cccc(C(F)(F)F)c1)c1cnc2n(c1=O)CCS2
  2.8%	2.1	i
- CC(=O)Nc1nc2ccc(C(=O)NC3CCCCC3)cc2s1
  0.5%	·	i
- CCOC(=O)N1CCN(C(=O)CCc2nc3sc4c(c3c(=O)[nH]2)CCCC4)CC1
  0.8%	-0.29	i
- O=C(CN1C(=O)C2C3c4ccccc4C(c4ccccc43)C2C1=O)N1CCOCC1 (stereo not given)
  3.9%	-0.33	i
- COc1ccc(Cl)cc1-c1nc(-c2ccncc2)no1
  -4.3%	-1.1	i
- Cc1nc2nc(C)c(CCC(=O)NCCC3=CCCCC3)c(C)n2n1
  2.4%	0.24	i
- Cc1cc(=O)n(-c2ccc(O)cc2)[nH]1
  1.5%	-1.2	i
- O=C1NC(=S)SC1=C1CCCC1
  -3.1%	·	i
- O=C(c1cccc(F)c1)N1CCN(S(=O)(=O)c2ccc(C(F)(F)F)cc2)CC1
  -2.1%	-0.96	i
- FC(F)(F)c1ccc(N2CCN(c3ncnc4c3nnn4Cc3ccccc3Cl)CC2)cc1
  3.2%	·	i
- Cc1cc(NC(=O)c2noc3c2CCCCC3)no1
  -6.3%	1.1	i
- CCOC(=O)C(NS(=O)(=O)c1ccc(Br)cc1)C(C)C (stereo not given)
  -4.7%	2.3	i
- CCc1nnc(NC(=O)CCC(=O)N2CCN(Cc3ccc(Cl)cc3)CC2)s1
  2.0%	-0.48	i
- CCOC(=O)c1c(NC(=O)CN(CC)CC)sc2c1CCN(C(=O)OCC)C2
  0.5%	-0.85	i
- N#Cc1nc(-c2ccccc2F)oc1NCc1ccccc1
  5.7%	-0.1	i
- O=C(Cc1cccs1)Nc1nc(-c2ccc(F)cc2F)cs1
  -4.2%	·	i
- CC1CCCC(NC(=O)COC(=O)Cc2cn3ccsc3n2)C1C (stereo not given)
  26%	-0.12	i
- O=C(c1nn(Cc2ccccc2)c(=O)c2ccccc12)N1CCN(c2ccccn2)CC1
  -3.4%	-1.1	i

# Remaining list, next part:
# The line under a structure holds: Hsc70 ATP site	WNV protease inh	MT1-MMP reporter
- N#CCSc1nc2ccc(N3CCCCC3)cc2c(=O)n1Cc1ccccc1
  -12%	-0.86	i
- COc1ccc(-n2ncc3c(NCc4ccco4)ncnc32)cc1
  -1.1%	-1.4	i
- Cc1cc(NC(=O)c2c(F)cccc2F)n(-c2nc3ccccc3[nH]2)n1
  2.6%	·	i
- O=C(Nc1cccc(C(F)(F)F)c1)c1cccnc1N1CCN(CCO)CC1
  6.8%	-0.03	i
- Cc1ccc(S(=O)(=O)N2CCCC2C(=O)NCCc2nc3ccccc3[nH]2)cc1 (stereo not given)
  -2.0%	0.82	i
- CCCCOC(=O)Cn1c(=N)n(CCN(CC)CC)c2ccccc21
  -2.3%	·	i
- C=CCn1c(SCCCc2ccccc2)nc2c1c(=O)[nH]c(=O)n2C
  2.6%	-0.15	i
- COCCNC(=O)c1ccc(CS(=O)(=O)c2c(Cl)cccc2Cl)o1
  0.4%	-0.36	i
- CCOC(=O)CSc1nc2cccnc2n1-c1ccc(F)cc1
  1.6%	-0.6	i
- C=CCOc1cccc(C2C(C(=O)c3ccc(C)o3)=C(O)C(=O)N2c2nccs2)c1 (stereo not given)
  118%	0.84	i
